# Screens deposited in PubChem by ICCB-Longwood Screening Facility, Harvard Medical School.
# HCMV UL50-53 inh: disrupts HCMV UL50-UL53 complex binding. HTRF UL50-UL53 interaction, normalized percent inhibition. inhibition, % (concentration not given with the values). actives 0.15% (n = 190,000);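 active = both replicates at 50% or more, plus weaker picks with an unusually low signal ratio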;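 also: stock transfer was 100 nL into about 20 µL; 0% = negative control wells and 100% = wells with untagged competitor protein; inactives centre near -12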
# * hit, by the source's call; & = joins results of further samples.
SMILES,HCMV UL50-53 inh
CCC(CC)C(=O)c1c[nH]c(C(=O)NCc2cccs2)c1,-5
CCOC(=O)c1c(C)nn(-c2ncc(C(F)(F)F)cc2Cl)c1C,-5
Cc1cccc(C)c1NC(=O)CC(NCc1ccco1)C(=O)O (centres undefined),11
Cc1cc(C)cc(C(=O)N(C)[C@H](Cc2ccc(-c3ccccc3)cc2)C(=O)N[C@@H](Cc2c[nH]c3ccccc23)C(=O)O)c1,-86
CC(C)CNC(=O)[C@@H]1C[C@H](CN2CCOCC2)CN(Cc2nccn2C)C1,-10
CCCCCCCCCCCCCCCCCCCCCC(=O)NCCS(=O)(=O)O,-30&-30
O=C(Nc1cccc(F)c1)C1COc2ccccc2O1 (centres undefined),10
NC(CC(=O)Nc1ccc(Cl)cc1)C(=O)O (centres undefined),1
O=C(NC1(C(F)(F)F)Oc2ccccc2O1)C(F)(F)F,0
CCCCCCCCCCC/C=C\C/C=C\CCCC(=O)O,-6
O=C(CS(=O)(=O)CC(=O)c1ccccc1)c1ccccc1,-14
O=C(NCCn1ccc2ccccc21)C1CC1,-9
O=C(O)CC(NS(=O)(=O)c1ccc(Br)cc1)c1ccccc1 (centres undefined),-10
O=C(O)CC(c1ccc(Br)cc1)n1cccc1 (centres undefined),5
N#CC1=C(SCC(N)=O)NC(=O)C(C#N)C1c1ccccc1Cl (centres undefined),6
Fc1ccc(-c2nnc(N3CCOCC3)c3ccccc23)cc1,8
COCCn1c(SC(C)C)nnc1-c1c[nH]c2ccccc12,-14
Cc1ccc2cc(CCNC(=O)c3ccc(F)c(F)c3)c(=O)[nH]c2c1C,7
Cc1ccc(/C=C/C(=O)N2CCN(C(=O)/C=C/c3ccc(C)o3)CC2)o1,3
Cc1cc(CN2CCOC(CN)C2)ccc1OC1(C(=O)O)CCSCC1 (centres undefined),9
CCOC(=O)c1c(NC(=O)C2(S(=O)(=O)c3ccccc3)CC2)sc(C)c1C,-3
COc1ccc2c(=S)c(-c3csc(C)n3)c(C)oc2c1,-54
O=c1c(Oc2ccc(F)cc2)coc2cc(O)cc(O)c12,1
Oc1ccccc1-c1nnco1,0&-10
COC(=O)C1=C(C#N)NC(C)=C(C(=O)OC(C)C)C1c1cccc([N+](=O)[O-])c1 (centres undefined),-20
# Remaining list, next part
SMILES,HCMV UL50-53 inh
N/C(=N\O)c1ccc(Cl)cc1,15
CC(C)=CCC/C(C)=C/CC1=C(C)C(=O)c2ccccc2C1=O,-16
CCOC(=O)N1CCN(CC(O)COC2CC(C)CCC2C(C)C)CC1 (centres undefined),-16
CC1=C(C(=O)OCCN(Cc2ccccc2)c2ccccc2)C(c2cccc([N+](=O)[O-])c2)C(P2(=O)OCC(C)(C)CO2)=C(C)N1 (centres undefined),2
O=c1c2nccnc2ncn1Cc1ccc2nsnc2c1,-51&-51
Cc1cccc(OCC(O)CN2CCCCC2)c1 (centres undefined),-13
CCCCC[C@@](C)(O)/C=C/[C@@H]1[C@@H](C/C=C\CCCC(=O)OC)[C@@H](O)C[C@H]1O,-31&-31
NC(=S)Cc1ccc(Cl)cc1Cl,-3
O=C(Nc1ccccc1)c1cccn(OCc2ccccc2)c1=O,-6
Nc1ncnc2c1ncn2C1O[C@H](CO)[C@@H](O)[C@@H]1O (some centres undefined),-22
O=P(O)(O)OC1[C@H](O)[C@H](O)C(O)[C@H](O)[C@H]1O (some centres undefined),-26&-26
Nc1ccccc1-c1nnc(SCC(=O)c2ccccc2)o1,-4
Nc1nccc(-c2ccc3noc(-c4ccc(Cl)cc4)c3c2)n1,-28&-8
Cc1sc2ncnc(N3CCC(Cn4cc(C(C)(C)N)nn4)CC3)c2c1C,-6
N#Cc1c(/N=C/c2ccccc2O)oc(-c2ccco2)c1-c1ccco1,-36
NCCCCCCCCCCNS(=O)(=O)c1cccc2c(Cl)cccc12,-15
NC(C(=O)O)c1nn[nH]n1 (centres undefined),-8
Cc1cccc(C(=O)N2CCCN(C(=O)c3cccc(C)c3)CC2)c1,-5
Cc1cc(-c2cnn(CC(=O)Nc3ccnn3Cc3ccccc3)c2)nc(N)n1,1&1
Cc1ccccc1Cn1c(CCNC(=O)C(C)(C)C)nc2ccccc21,-4
CNCCC=C1c2ccccc2C=Cc2ccccc21,-44
C/C=C1/C(=O)C[C@H]2[C@@H]3CCC4=CC(=O)CC[C@]4(C)[C@H]3CC[C@]12C,6
NC(=O)CSc1ncnc2c1oc1ccccc12,3
CCOC(=O)c1c(-c2ccccc2)oc2ccc(O)c(CN(C)C)c12,-5
CC1CCC(C(C)C)C(OCC(O)CN2CCCCC2)C1 (centres undefined),-9
# (list continues)
SMILES,HCMV UL50-53 inh
CSc1nc2ccccc2s1,-7
CCCCCCCCCCCCCCCC(=O)NC[C@@H](C)O,-12&-12
COc1cc(C)ccc1S(=O)(=O)n1cnc2cc(C)c(C)cc21,0
Cc1ccc2cccc(S(=O)(=O)Nc3ccc4c(c3)OCO4)c2n1,-6
COC(=O)C1=CO[C@@H](C)[C@H]2CN3CCc4c([nH]c5ccccc45)[C@@H]3C[C@H]12,-23
Cc1ccc2c(c1)sc(=NC(=O)CN1C(=O)CCC1=O)n2C,-17
CC(O)CN(CCN(CC(C)O)CC(C)O)CC(C)O (centres undefined),-54
Cc1onc(-c2c(Cl)cccc2Cl)c1-c1csc(CCn2c(=O)oc3ccccc32)n1,-10
COc1ccccc1NC(=O)CN1C=NS(=O)(=O)c2ccccc21,-8
O=C(Cc1ccccc1)NCCSc1c[nH]c2ccccc12,3
O=C(Nc1ccc2ccccc2c1)c1ccc(Br)o1,-23
C[C@]12C=CC(=O)C=C1CCC1C2C(O)C[C@@]2(C)C1CC[C@]2(O)C(=O)COC(=O)CCC(=O)O (some centres undefined),-35
COc1ccc2cc(CCNC(=O)C(C)Oc3ccccc3)c(=O)[nH]c2c1 (centres undefined),-21
CC1(C)CC(=O)c2cc3c(N)c(C(=O)c4ccccc4)sc3nc2C1,-1
CCN(CC)c1ccc(/C=N/c2nc3c(s2)CCCC3)c(O)c1,-18
Cc1nc(C(N)=NC(=O)c2ccc(Cl)cc2)cs1,-5
N#Cc1c(NC(=O)COc2ccccc2)sc2c1CCC2,-7
Cc1ccc(/C=C/C(=O)O)cc1S(=O)(=O)N1CCCC1,-1
Nc1ccc2ncnc(NCCc3ccc(Oc4ccccc4)cc3)c2c1,-6&-15&-10&-10&-9
Cc1cc(NC(=O)Cc2ccccc2)nc2c1c(=O)oc1ccccc12,-13
CCC(=O)OCC(=O)[C@@]1(OC(=O)CC)[C@H](C)CC2C3C([C@@H](O)C[C@@]21C)[C@@]1(C)C=CC(=O)C=C1C[C@H]3Cl (some centres undefined),-41
COC(=O)C(N)Cc1ncc(C(F)(F)F)cc1Cl (centres undefined),9
Cc1cnc(CN(C)C(=O)c2n[nH]c3ccccc23)[nH]1,-25&-25
COc1cc(NC(=O)c2cncc(-c3ccc(C#N)cc3)c2)cc(C(=O)Nc2cccc(C(F)(F)F)c2)c1,-14
CCCCCCCC/C=C\CCCCCCCCOCCOP(=O)([O-])OCC[N+](C)(C)C,-2&-2

# Structures shown so far that contain an aryl methoxy group:
SMILES,HCMV UL50-53 inh
COc1ccc2c(=S)c(-c3csc(C)n3)c(C)oc2c1,-54
COc1cc(C)ccc1S(=O)(=O)n1cnc2cc(C)c(C)cc21,0
COc1ccccc1NC(=O)CN1C=NS(=O)(=O)c2ccccc21,-8
COc1ccc2cc(CCNC(=O)C(C)Oc3ccccc3)c(=O)[nH]c2c1 (centres undefined),-21
COc1cc(NC(=O)c2cncc(-c3ccc(C#N)cc3)c2)cc(C(=O)Nc2cccc(C(F)(F)F)c2)c1,-14

# The list continues:
SMILES,HCMV UL50-53 inh
CC1CN(S(=O)(=O)CC23CCC(CC2=O)C3(C)C)CC(C)O1 (centres undefined),-11
Cc1ccc(C2=Nn3c(C)nnc3SC2)cc1,-15
COc1ccccc1NC(=O)c1cccn(OCc2ccccc2)c1=O,-17
NC(=O)c1ccc(Oc2ccc(C(N)=O)cc2)cc1,-14
COC(=O)c1ccc(N2CCC(c3ccccc3Cl)C2)nc1 (centres undefined),-26
CC(=O)N[C@@H](CCC(N)=O)C(=O)O,-47
CC(=O)Nc1ccc(S(=O)(=O)N2CCN=C2SC(C)c2ccccc2)cc1 (centres undefined),-10
OCC(CO)NC1C[C@@](O)(CO)C(O)C(O)C1O (some centres undefined),-15
Cc1cc(C)c(S(=O)(=O)N2CCCC2=O)c(C)c1,-10
OC[C@H]1O[C@@H](n2cnc3c(N[C@H]4CCC[C@@H]4O)ncnc32)[C@H](O)[C@@H]1O,-1
O=C(CC1Sc2ccc(C(F)(F)F)cc2NC1=O)Nc1ccc(O)cc1 (centres undefined),-5
O=C(O)CSc1nnc(-c2ccc([N+](=O)[O-])o2)o1,-128
O=C(c1ccco1)N1CCN(Cc2ccccc2)CC1,-16
CS(=O)(=O)N1CCN(c2ccccn2)CC1,-9
O=C(CSc1ncnc2c1oc1ccccc12)Nc1ccccc1,-7
c1csc(CNc2ncnc3nc[nH]c23)c1,-19
O=C(O)CCC/C=C/C[C@@H]1[C@@H](/C=C/[C@@H](O)COc2cccc(C(F)(F)F)c2)[C@H](O)C[C@@H]1O,-23&-23
CCc1nc(NC(=O)NC(c2ccccc2)c2ccco2)nn1C (centres undefined),-10&-10
NC(=O)c1cc2cc(Br)cc(Br)c2oc1=O,-17
CCCNS(=O)(=O)Nc1ncnc(OCCOc2ncc(Br)cn2)c1-c1ccc(Br)cc1,0
Cc1ccc(-c2c3c(nc4sc(C(N)=O)c(N)c24)CCCC3)o1,-8
c1csc(-c2nnc(N3CCOCC3)c3ccccc23)c1,-8
CN(C)S(=O)(=O)NCc1ccc2[nH]c3c(c2c1)CCCC3,-12
CCc1c2c(nc3ccc(O)cc13)-c1cc3c(c(=O)n1C2)COC(=O)[C@]3(O)CC,-15&-19
COc1cccc2cc(-c3nnc(Nc4ccccc4F)s3)c(=O)oc12,0

# The final 5 compounds of the part above come first, to join the parts.
SMILES,HCMV UL50-53 inh
Cc1ccc(-c2c3c(nc4sc(C(N)=O)c(N)c24)CCCC3)o1,-8
c1csc(-c2nnc(N3CCOCC3)c3ccccc23)c1,-8
CN(C)S(=O)(=O)NCc1ccc2[nH]c3c(c2c1)CCCC3,-12
CCc1c2c(nc3ccc(O)cc13)-c1cc3c(c(=O)n1C2)COC(=O)[C@]3(O)CC,-15&-19
COc1cccc2cc(-c3nnc(Nc4ccccc4F)s3)c(=O)oc12,0
COc1ccc(C(=O)NCCCc2nc3ccccc3[nH]2)cc1OC,-6
O=C(C1CC1)N1CCc2ccccc21,-14
COc1ccc2c(c1)c(CC(=O)SC[C@H](NC(C)=O)C(=O)OCCCCO[N+](=O)[O-])c(C)n2C(=O)c1ccc(Cl)cc1,-10&-10
Cc1cc(C)c(S(=O)(=O)Nc2ccccc2C(F)(F)F)c(C)c1,0
CCOC(=O)CSc1nc2ccccc2c(=O)n1-c1ccccc1,-13
COc1ccc(S(=O)(=O)NCc2ccco2)cc1,-15
CCOC(=O)C(C)Sc1nnc(NC(=O)c2cc(Br)ccc2Cl)s1 (centres undefined),-22
O=C(CS(=O)(=O)c1cn(Cc2ccc(F)cc2)c2ccccc12)NC1CCCCC1,-7
NC(C(=O)O)C12CC3CC(CC(C3)C1)C2 (centres undefined),-12
CC(=O)Nc1ccc2nc(NC(=O)c3ccc(F)cc3)sc2c1,-2
COc1ccc(C(=O)Nc2ncnc3sc4c(c23)CCCC4)cc1OC,-20
COC(=O)/C(=C\c1cccnc1)NC(=O)c1ccc(OCc2ccccc2)cc1,-16

# Part of the list above in order of SMILES length, ascending:
SMILES,HCMV UL50-53 inh
NC(C(=O)O)C12CC3CC(CC(C3)C1)C2 (centres undefined),-12
COc1ccc(C(=O)NCCCc2nc3ccccc3[nH]2)cc1OC,-6
COc1ccc2c(c1)c(CC(=O)SC[C@H](NC(C)=O)C(=O)OCCCCO[N+](=O)[O-])c(C)n2C(=O)c1ccc(Cl)cc1,-10&-10

# This is a subset; the hit share may differ from the screen's.
